# USP2a inhib: blocks human ubiquitin-specific protease USP2a | USP2a enzymatic assay, qHTS inhibition | Potency, µM (titrated, usually from 38.3 µM), for the others: at the highest dose activity change, negative = inhibition, most hits filed as inhibitors | O75604 | 60,000 tested, 0.1% active;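 further: potency means the concentration at half of the fitted maximal effect; nearly all actives have a fitted effect of over 60% in size; plate controls were DMSO for no effect and NEM full inhibition control for full effect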
#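 Inhibition is measured in a cell-free coupled assay with 20 nM USP2 core, 20 nM Ub-PLA2 and 20 uM NBD C6-HPC, 2.5 h incubation. Activity normalized to NEM control.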
# HEK293 cAMP ctrl: counter-screen for TSHR agonists: cAMP increase in parental HEK293; parental HEK293 CNG cAMP sensor, membrane potential fluorescence; Potency, µM (series often up to 57.1 µM), without a hit: at the highest dose activation, most hits filed as activators; 73,000 tested, 2.5% active; AID 938; further: potency means the concentration at half of the fitted maximal effect; % of control where 0% means no effect; nearly all actives have a fitted effect of over 55% in size
#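 Counterscreen for endogenous-receptor signalling: CNG-channel HEK 293 cells report cAMP rise by membrane depolarization. After 60 min dye equilibration with 100 uM RO 20-1724, compounds incubated 30 min before bottom-read fluorescence at 590 nm.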
# DNA Pol III inh: blocks replication by bacterial DNA polymerase III holoenzyme | 71,000 tested, 0.25% active | reconstituted DNA polymerase III holoenzyme replication, biochemical | Potency, µM (series often up to 57.1 µM), for inactives: top-dose activity change, negative = inhibition | AID 603; further: potency means the concentration at half of the fitted maximal effect; on the % scale 0 is the no-effect control and ±100 the full control effect
#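 Reconstituted *E. coli* holoenzyme (0.35 nM Pol III, 1 nM beta, 154 nM SSB, 2 nM primase) was preincubated with compound for 15 min at RT. Synthesis on 1.4 nM ssM13Gori ran 35 min, then was stopped with PicoGreen/EDTA and read as dsDNA fluorescence.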
# ALOX15 inhib: inhibitors of human 15-lipoxygenase (ALOX15). Potency, µM (highest dose often 57.1 µM), for the others: at the highest dose activity change, negative = inhibition, actives largely listed as inhibitors. AID 887. 74,000 tested, 1.4% active. purified 15hLO-1, xylenol orange hydroperoxide absorbance; further: potency means the concentration at half of the fitted maximal effect; on the % scale 0 is the no-effect control and ±100 the full control effect; nearly all actives have a fitted effect of over 55% in size
# Target sequence (P16050 whole entry, looked up): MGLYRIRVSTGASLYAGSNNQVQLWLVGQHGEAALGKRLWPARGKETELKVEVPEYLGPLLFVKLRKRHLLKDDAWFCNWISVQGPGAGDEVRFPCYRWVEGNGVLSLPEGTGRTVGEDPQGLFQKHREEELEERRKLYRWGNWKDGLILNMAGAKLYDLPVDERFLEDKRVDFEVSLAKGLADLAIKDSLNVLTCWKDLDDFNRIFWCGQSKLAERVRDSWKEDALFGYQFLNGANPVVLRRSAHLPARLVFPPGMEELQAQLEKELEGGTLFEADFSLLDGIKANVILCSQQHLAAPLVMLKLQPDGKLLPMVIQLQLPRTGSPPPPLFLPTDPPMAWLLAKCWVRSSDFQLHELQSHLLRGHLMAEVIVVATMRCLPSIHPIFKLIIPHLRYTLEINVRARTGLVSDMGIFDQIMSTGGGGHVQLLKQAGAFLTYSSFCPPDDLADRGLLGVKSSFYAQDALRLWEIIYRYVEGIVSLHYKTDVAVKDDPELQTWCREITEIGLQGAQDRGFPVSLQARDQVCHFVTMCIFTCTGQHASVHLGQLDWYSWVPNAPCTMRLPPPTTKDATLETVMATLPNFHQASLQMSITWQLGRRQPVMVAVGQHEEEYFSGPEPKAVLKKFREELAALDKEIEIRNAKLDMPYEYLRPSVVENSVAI
#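 Purified human 15hLO-1 (40 nM) in 25 mM Hepes pH 7.5, 0.01% Triton X-100, preincubated 15 min RT with compound, then 50 uM arachidonic acid for 6 min. Hydroperoxide read by ferrous/xylenol orange, 30 min; 573/405 nm absorbance ratio gave progress.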
# Rhodamine fluor: rhodamine region autofluorescence. 59,000 tested, 0.05% active. Rhodamine-region fluorescence, 547/598 nm, Tris buffer; stronger effect = higher value. max dye-equivalent concentration, M. AID 594; in the data active means max dye-equivalent concentration above about 11 nM; inconclusive means between about 1.1 nM and that limit
#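 Compounds in 100 mM Tris buffer, pH 8.0, were incubated 15 min at room temperature, then read at 547 nm excitation and 598 nm emission. Fluorescence was normalized against a per-plate six-point rhodamine standard curve as dye-equivalent concentration.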
# BRCT PPI green: BRCA1 BRCT-phosphoprotein interaction inhibition. BRCA1 BRCT-phosphopeptide binding, green fluorescence polarization. Potency, µM (highest dose often 76.9 µM), inactives show at the top dose activity change, negative = inhibition, hits mostly inhibitors. 75,000 tested, 0.05% active. P38398;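 further: potency means the concentration at half of the fitted maximal effect; plate controls were peptide without protein for full effect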
#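 Compounds were incubated for 12 min at room temperature with a complex of 100 nM fluorescein-tagged pBACH1 decapeptide and 250 nM His-tagged BRCT protein. Buffer was phosphate pH 7.3 with EDTA, DTT and Tween 20. Disruption of binding lowers the polarization signal.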
# Tau filament bind: tau filament binding | recombinant tau filaments, thioflavin S fluorescence, 15 h; filaments grown with octadecylsulfate alongside compound | Potency, µM (series often up to 57.1 µM), inactives show at the highest dose activity change, negative = inhibition | 71,000 tested, 2% active;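 further: potency means the concentration at half of the fitted maximal effect; on the % scale 0 is the no-effect control and ±100 the full control effect; actives lower thioflavin S fluorescence by blocking filaments or displacing dye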
#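 His-tagged recombinant human tau (exons 2, 3 and 10 included), 1 uM, was induced to fibrillize by 30 uM sodium octadecylsulfate with compound present. After 15 h at 37 C, thioflavine S fluorescence (ex 450, em 510 nm) was read.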
# BRCT PPI red: inhibitors of human BRCA1 BRCT-phosphoprotein interaction (red fluorophore) | P38398 | BRCT-phosphopeptide binding, red fluorescence polarization | Potency, µM (titrated, usually from 76.9 µM), for inactives: at the highest dose activity change, negative = inhibition, hits mostly inhibitors | 75,000 tested, 0.03% active | AID 892; further: on the % scale 0 is the no-effect control and ±100 the full control effect
#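 Fluorescence polarization: 100 nM His-tagged BRCA1 BRCT with 100 nM TAMRA-labelled phospho-BACH1 decapeptide, phosphate buffer pH 7.3 with 150 mM NaCl, DTT, 0.01% Tween 20; 12 min RT. Binding inhibition seen as FP decrease.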
# HADH2 inhib: blocks human hydroxyacyl-CoA dehydrogenase type II; Potency, µM (series often up to 57.1 µM), without a hit: at the highest dose activity change, negative = inhibition, usual class: inhibitors; Q99714; recombinant HADH2, NADH fluorescence, beta-hydroxybutyryl-CoA; AID 886; 73,000 tested, 3.4% active; further: potency means the concentration at half of the fitted maximal effect; on the % scale 0 is the no-effect control and ±100 the full control effect; nearly all actives have a fitted effect of over 60% in size; many of its hits are not listed in these tables
# Target sequence (Q99714 whole entry, looked up, one chain of several): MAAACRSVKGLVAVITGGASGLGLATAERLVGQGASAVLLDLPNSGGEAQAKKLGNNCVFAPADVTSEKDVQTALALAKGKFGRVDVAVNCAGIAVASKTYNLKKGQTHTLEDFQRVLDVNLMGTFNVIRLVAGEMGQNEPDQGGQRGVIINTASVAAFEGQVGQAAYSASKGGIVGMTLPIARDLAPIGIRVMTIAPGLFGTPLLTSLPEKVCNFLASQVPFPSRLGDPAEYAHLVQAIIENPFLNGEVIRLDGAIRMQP
#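 E. coli-expressed His-tagged HADH2 tested at 20 nM in alkaline Tris buffer (pH 9.0); oxidation of 90 uM beta-hydroxybutyryl-CoA with 1 mM NAD+ tracked fluorimetrically for 4 min.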
# An asterisk follows results filed as active; i = inactive; ? = inconclusive; nt = not tested or not shown; [ ] = dose if it differs, or a comment. Unless noted, the call rests on the fitted dose curve; in most records, active means well fitted curve in the direction sought with a large enough effect; inconclusive means small, poorly fitted or top-dose-only effect, or another doubt; inactive means no such curve, though single readings can be large; an effect the other way counts as inactive or inconclusive. Only part of the results is shown, so the mix of outcomes need not match the whole.
entry | Molecule | USP2a inhib | HEK293 cAMP ctrl | DNA Pol III inh | ALOX15 inhib | Rhodamine fluor | BRCT PPI green | Tau filament bind | BRCT PPI red | HADH2 inhib
1 | O=C(NCC1CCCO1)c1coc2nc3ccccc3nc12 (stereo not drawn) | -7% | 4% | -6% | -16% | i | 0.7% | 4% | -0.1% | 314%[activator]
2 | COc1ccc(N2CCN(c3cc(C)c4ccc(O)cc4n3)CC2)cc1 | nt | -47%[inhibitor] | -1% | -28% | nt | -1.0% | ? | -1.6% | 25µM*
3 | CCc1cc2c(CN3CCN(CCO)CC3)cc(=O)oc2cc1O | 0% | 1% | -2% | 3% | i | -3.1% | 316% | 0.3% | 32µM*
4 | CCOC(=O)c1c(NC(=O)c2cccs2)sc2c1CCC2 | 8% | 0% | 5% | 8% | nt | -3.4% | 243% | 0.7% | -9%
5 | Cn1c(C(=O)NCC2CCCO2)cc2c(=O)n3ccccc3nc21 (stereo not drawn) | -1% | 4% | -8% | -1% | i | -0.1% | 8% | -0.3% | 25µM*
6 | COc1ccc(N=c2oc3cc(O)ccc3cc2C(=O)NCC2CCCO2)cc1 (stereo not drawn) | -4% | ? | -6% | -6% | i | -1.1% | 3% | 0.3% | -11%
7 | N#Cc1cccc(-c2nc3cnc(N4CCOCC4)nc3n(C3CC3)c2=O)c1 | 106%[activator] | 6% | -2% | 2% | i | -1.5% | -7% | -5.6% | -4%
8 | CCCC(=O)C1=C(c2ccccc2)C(C#N)(C#N)C(C#N)=C1N | 2% | 4% | -2% | -25% | i | -21% | 51% | -9.6% | -14%
9 | O=c1[nH]c2cc3c(cc2cc1CN(CCc1ccccc1)Cc1nnnn1C1CCCC1)OCCO3 | 3% | 29% | -5% | 8% | i | -1.3% | 18% | -1.0% | 12%
10 | C=C1C[C@@]23C[C@]1(O)CC[C@@H]2[C@]12C=C[C@@H](O)[C@](C)(C(=O)O1)[C@H]2[C@H]3C(=O)O | -9%[17.1 µM] | 22%[25.6 µM] | 4%[25.6 µM] | 3%[25.6 µM] | i | -4.4%[34.4 µM] | -2%[25.6 µM] | 0.6%[34.4 µM] | -8%[25.6 µM]
11 | COC(=O)CSc1nc2cc(C)cc(C)c2cc1C#N | 8% | ? | -5% | -16% | i | 6.6% | -3% | 0.2% | 8%
12 | CC1=CCC2CC1C2(C)C (stereo not drawn) | nt | -3% | -1% | 1% | nt | -2.4% | -2% | -0.4% | 7%
13 | Cc1cc(N2CCCC2)ccc1/C=N/n1cnnc1 | 6%[7.66 µM] | -1%[11.4 µM] | 4%[11.4 µM] | -8%[11.4 µM] | nt | -0.5% | 4%[11.4 µM] | 0.0% | ?
14 | CCOC(=O)CSc1nc2ccc(N3CCOCC3)cc2c(=O)n1Cc1ccc2c(c1)OCO2 | -6% | -7% | -14% | 20µM* | i | -6.4% | -27% | -2.6% | -29%
15 | Cc1cc(C)c2cc(C#N)c(N3CCCC3)nc2c1 | 0% | ? | 0% | ? | i | 1.2% | 17% | 0.1% | 4%
16 | COCC(=O)Nc1nc2n(n1)C(c1ccccc1)CC(c1ccc(OC)cc1)N2 (stereo not drawn) | 18% | 5% | -2% | -5% | i | 0.0% | 30% | -3.1% | -18%
17 | Cn1cc(-c2nc3cnc(OCc4ccccc4)nc3n(CCC#N)c2=O)c2ccccc21 | 172%[activator] | ? | -9% | 4% | i | 0.8% | 112% | 0.0% | -5%
18 | O=C1CC2(CCCCC2)Oc2ccc(OCC(=O)N3CCOCC3)cc21 | 10% | 0% | -2% | 3% | i | 0.3% | -6% | 1.3% | ?
19 | Cc1ccc(S(=O)(=O)c2cc3c(=O)n4cc(C)ccc4nc3n(CC3CCCO3)c2=N)cc1 (stereo not drawn) | 3% | -6% | 5% | -6% | i | -3.0% | 31% | -0.2% | 11%
20 | CN(C)c1ncc2nc(-c3cc(F)cc(F)c3)c(=O)n(C3CC3)c2n1 | 32% | -12% | 1% | -3% | i | -1.2% | 8% | 1.3% | 97%[activator]
21 | O=C(CN1C(=O)c2cccc3cccc1c23)N1CCN(c2ccccc2)CC1 | 48%[activator] | 6% | -3% | 8% | i | -2.1% | 1% | 0.2% | -8%
22 | COc1ccc2nc(SCC(=O)Nc3ccc(S(=O)(=O)N4CCCC4)cc3)c(C#N)cc2c1 | 34%[activator] | 3.2µM* | -1% | -1% | i | 5.2% | 25% | 1.0% | -16%
23 | Cc1ccc2[nH]c3c(c2c1)CN(C(=O)CN1CCN(c2cccc(C)c2C)CC1)CC3 | 22% | -11% | -1% | -16% | i | 0.1% | 266% | -0.7% | 15%
24 | N#CCCn1c(=O)c(-c2ccc(F)cc2)nc2cnc(Oc3cccc(Cl)c3)nc21 | 71%[activator] | 6% | -5% | 2% | i | 5.4% | 158% | -1.9% | -10%
25 | CCNc1ncc2nc(-c3cccs3)c(=O)n(CCc3ccccc3)c2n1 | 180%[activator] | ? | 7% | 3% | i | 1.2% | 171% | -7.9% | 9%
26 | COCCn1c(=O)c(CCc2ccccc2)nc2cnc(N3CCNCC3)nc21 | 70%[activator] | -4% | -5% | 4% | i | -1.8% | 10% | 0.1% | 11%
27 | Cc1ccccc1N1C(=O)c2cccc3c(N(C)CCO)ccc(c23)C1=O | 20% | 4% | 11% | -19% | nt | 32%[activator] | i | -2.1% | 0%
28 | COc1cccc(C2=CC(c3cccc(OC)c3OC)n3nnnc3N2)c1 (stereo not drawn) | 19% | 10% | 3% | -18% | i | -0.9% | 22% | 1.4% | -10%
29 | COc1ccc(-c2cc(-c3ccccc3)nc(N3CCCC3)n2)cc1OC | 11%[7.66 µM] | 11%[11.4 µM] | -2%[11.4 µM] | -9%[11.4 µM] | nt | 2.6% | 88%[11.4 µM] | 0.0% | i[11.4 µM]
30 | CCNc1cc2oc(=O)c(CN3CCOCC3)c(C)c2cc1C | 9%[7.66 µM] | 16%[11.4 µM] | 0%[11.4 µM] | -9%[11.4 µM] | nt | -2.5% | i[11.4 µM] | -1.7% | 0.79µM*
31 | O=C(Nc1ccc(N2CCN(C(=O)c3ccco3)CC2)cc1)c1ccccc1F | 8% | -11% | -2% | 0% | i | -2.7% | -22% | 0.5% | ?
32 | COCCN1C=C(C(=O)OC)C(c2cc3c(cc2Br)OCO3)C(C(=O)OC)=C1 | 10% | 19% | 0% | -19% | nt | -4.2% | 69% | -2.8% | 10%
33 | COc1ccc(-c2nc3cnc(Nc4cccc(OC)c4)nc3n(CCC#N)c2=O)cc1 | 113%[activator] | ? | -4% | -6% | i | 23% | 360% | 0.9% | -1%
34 | CC(=O)Oc1cc2oc(=O)cc(C)c2cc1OC(C)=O | 5% | -11% | -7% | ? | nt | -2.2% | 35% | 1.3% | 25µM*
35 | Cc1ccc2cc(C#N)c(NCCNC(=O)C3CCC3)nc2c1C | 32%[activator] | 28% | -10% | 2% | i | -1.9% | 14% | -0.9% | -23%
36 | CCC(C)(C)n1nnnc1C(c1cc2cc3c(cc2[nH]c1=O)OCO3)N1CCN(C)CC1 (stereo not drawn) | 0% | -1% | -2% | -4% | i | -0.2% | 4% | 2.8% | 22%
37 | C=CCn1c(N)c(C(=O)OC(C)CC)c2nc3ccccc3nc21 (stereo not drawn) | 15% | 26% | -3% | -8% | i | -2.1% | -12% | 0.1% | i
38 | COCCCn1c(=N)c(C(=O)NCC2CCCO2)cc2c(=O)n3cccc(C)c3nc21 (stereo not drawn) | 0% | -8% | -14% | -6% | i | -1.3% | 9% | -1.0% | 32µM*
39 | N#CCCn1c(=O)c(-c2ccc(Cl)cc2)nc2cnc(N3CCNCC3)nc21 | 145%[activator] | -7% | -6% | -8% | i | -2.3% | 4µM* | -0.2% | 320%[activator]
40 | COCCn1c(=O)c(-c2ccc(OC)cc2)nc2cnc(Oc3ccccc3)nc21 | 100%[activator] | ? | -2% | -8% | i | 0.9% | 8% | 0.3% | -11%

# Fetched by structure from the list above (7):
entry | Molecule | USP2a inhib | HEK293 cAMP ctrl | DNA Pol III inh | ALOX15 inhib | Rhodamine fluor | BRCT PPI green | Tau filament bind | BRCT PPI red | HADH2 inhib
35 | Cc1ccc2cc(C#N)c(NCCNC(=O)C3CCC3)nc2c1C | 32%[activator] | 28% | -10% | 2% | i | -1.9% | 14% | -0.9% | -23%
33 | COc1ccc(-c2nc3cnc(Nc4cccc(OC)c4)nc3n(CCC#N)c2=O)cc1 | 113%[activator] | ? | -4% | -6% | i | 23% | 360% | 0.9% | -1%
32 | COCCN1C=C(C(=O)OC)C(c2cc3c(cc2Br)OCO3)C(C(=O)OC)=C1 | 10% | 19% | 0% | -19% | nt | -4.2% | 69% | -2.8% | 10%
39 | N#CCCn1c(=O)c(-c2ccc(Cl)cc2)nc2cnc(N3CCNCC3)nc21 | 145%[activator] | -7% | -6% | -8% | i | -2.3% | 4µM* | -0.2% | 320%[activator]
34 | CC(=O)Oc1cc2oc(=O)cc(C)c2cc1OC(C)=O | 5% | -11% | -7% | ? | nt | -2.2% | 35% | 1.3% | 25µM*
36 | CCC(C)(C)n1nnnc1C(c1cc2cc3c(cc2[nH]c1=O)OCO3)N1CCN(C)CC1 (stereo not drawn) | 0% | -1% | -2% | -4% | i | -0.2% | 4% | 2.8% | 22%
31 | O=C(Nc1ccc(N2CCN(C(=O)c3ccco3)CC2)cc1)c1ccccc1F | 8% | -11% | -2% | 0% | i | -2.7% | -22% | 0.5% | ?
